# Mtb growth: Mycobacterium tuberculosis H37Rv growth inhibition, putative kinase inhibitor library, confirmatory dose response (AID 2842); one-dose inhibition, % at 10 µg/mL; IC90 in µg/mL for titrated hits; M. tuberculosis H37Rv growth inhibition; higher % means a stronger effect; some inactives read as strong as hits; 24,000 compounds, 5.2% hits;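 active = confirmed in a dose series; about a fifth of its hits are not listed in these tables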;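 also: bacteria incubated one week before Alamar blue readout; 0% = bacteria only wells and 100% = bacteria with high antibiotic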
# An asterisk follows results filed as active.
SMILES,Mtb growth
COc1cccc(C(=O)Nc2nc3ccc([N+](=O)[O-])cc3s2)c1OC,1%
CC(Oc1ccccc1)C(=O)N1CCC2(CC1)CC(=O)c1ccccc1O2 (stereo unspecified),-4%
CC(C)N(C(=O)CSc1nnc(CCC(=O)O)c(=O)n1N)c1ccccc1,-7%
Cc1nnc(Sc2nc3c(c(=O)[nH]c(=O)n3C)n2Cc2ccccc2Cl)s1,-7%
COc1cc(/C=N/N=C(\N)SCc2ccccc2)ccc1O,1%
O=C(COc1ccccc1)Nc1cccc(-c2ccc3nncn3n2)c1,-4%
CCS(=O)(=O)c1cccc(C(=O)Nc2nc(-c3cc(C)ccc3C)cs2)c1,77%
Cc1cccc(NC(=O)CSc2nc3c(c(=O)n2-c2ccc(Cl)cc2)SCC3)c1,13%
Cc1nc2sc(C(c3cccs3)N3CCN(C(=O)c4ccco4)CC3)c(O)n2n1 (stereo unspecified),-7%
CCCCN(C)S(=O)(=O)c1ccc(C(=O)Nc2nnc(COC)o2)cc1,-32%
Cn1c(=O)c2c(SCC(=O)Nc3ccc4c(c3)OCCO4)nc(-c3cccs3)nc2n(C)c1=O,-2%
Cc1ccc2sc(NNC(=O)c3ccc(S(=O)(=O)N4CC(C)OC(C)C4)cc3)nc2c1C (stereo unspecified),39%
COc1ccc(OC)c(S(=O)(=O)ON2C(=O)c3cccc4cccc(c34)C2=O)c1,-1%
O=C(CSc1ccc2nnc(-c3ccncc3)n2n1)Nc1nccs1,-1%
COc1ccc(OC)c2[nH]c(=O)c(CCNC(=O)c3ccc(S(=O)(=O)N4CCCCC4)cc3)cc12,-1%
Cc1oc2ccc(NS(=O)(=O)c3cccc([N+](=O)[O-])c3)cc2c1C(=O)OC(C)C,-2%
O=C(Nc1cccc(NC(=O)c2cccnc2)c1)c1cccnc1,-2%
CCOCC(=O)Nc1c(C(=O)Nc2ccccc2OCC)oc2ccccc12,-5%
COc1ccc(C)c2sc(N3CCOCC3)nc12,2%
COc1ccc(S(=O)(=O)NC2CC(=O)N(c3ccc(C)c(C)c3)C2)cc1C (stereo unspecified),7%

# 5 entries from above, sorted by number of heavy atoms, largest number first.
SMILES,Mtb growth
Cn1c(=O)c2c(SCC(=O)Nc3ccc4c(c3)OCCO4)nc(-c3cccs3)nc2n(C)c1=O,-2%
COc1ccc(OC)c(S(=O)(=O)ON2C(=O)c3cccc4cccc(c34)C2=O)c1,-1%
CCS(=O)(=O)c1cccc(C(=O)Nc2nc(-c3cc(C)ccc3C)cs2)c1,77%
COc1cccc(C(=O)Nc2nc3ccc([N+](=O)[O-])cc3s2)c1OC,1%
COc1ccc(C)c2sc(N3CCOCC3)nc12,2%

# 4 consecutive entries already listed, for reference:
SMILES,Mtb growth
O=C(Nc1cccc(NC(=O)c2cccnc2)c1)c1cccnc1,-2%
CCOCC(=O)Nc1c(C(=O)Nc2ccccc2OCC)oc2ccccc12,-5%
COc1ccc(C)c2sc(N3CCOCC3)nc12,2%
COc1ccc(S(=O)(=O)NC2CC(=O)N(c3ccc(C)c(C)c3)C2)cc1C (stereo unspecified),7%

# Screens (PubChem)

# This is a subset, so the mix of outcomes need not match the whole.
